# gsp antag – gsp mutant antagonism | Potency, µM (titrated, usually from 76.9 µM), inactives show at the top dose activity change, negative = inhibition, most hits filed as inhibitors | AID 624288 | gsp-mutant cells, cAMP HTRF, 30 min; control for the full effect not named in the record | 0.4% of 340,000 active; active = falling curve of any shape with a large fitted effect; inconclusive = falling curve, mostly with a smaller effect; inactive = flat or rising curve; cell line not stated here;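 further: intracellular cAMP measured with PDE inhibitor Ro 20-1724 present during compound exposure; potency means the concentration at half of the fitted maximal effect; on the % scale 0 is the no-effect control and ±100 the full control effect; nearly all actives have a fitted effect of over 65% in size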
#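 G418-selected cells were plated in DMEM/10% FBS for 16-24 h at 37C, then treated with compounds plus the PDE inhibitor […] (300 uM solution added) for 30 min at 37C. Intracellular cAMP was measured by HTRF after 30 min lysis at room temperature.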
# TRPML1 inh – human mucolipin-1 channel inhibition; Q9GZU1; TRPML1-inducible cells, Ca2+ dye fluorescence, FDSS; stronger effect = lower value; inhibition of EC80 agonist-evoked calcium signal; activity change, negative = inhibition, % (no concentration beside the values); 0.02% of 390,000 active; in the data active means activity change below about -50%; inconclusive means about -30% to -50%; inactive means above about -30%;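 further: stimulus is agonist 54-4 at its EC80 concentration; on the % scale 0 is the no-effect control and ±100 the full control effect; compound concentration not given in the record; the text of the record puts the active cut at -80%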
# Target sequence (Q9GZU1 whole entry, looked up): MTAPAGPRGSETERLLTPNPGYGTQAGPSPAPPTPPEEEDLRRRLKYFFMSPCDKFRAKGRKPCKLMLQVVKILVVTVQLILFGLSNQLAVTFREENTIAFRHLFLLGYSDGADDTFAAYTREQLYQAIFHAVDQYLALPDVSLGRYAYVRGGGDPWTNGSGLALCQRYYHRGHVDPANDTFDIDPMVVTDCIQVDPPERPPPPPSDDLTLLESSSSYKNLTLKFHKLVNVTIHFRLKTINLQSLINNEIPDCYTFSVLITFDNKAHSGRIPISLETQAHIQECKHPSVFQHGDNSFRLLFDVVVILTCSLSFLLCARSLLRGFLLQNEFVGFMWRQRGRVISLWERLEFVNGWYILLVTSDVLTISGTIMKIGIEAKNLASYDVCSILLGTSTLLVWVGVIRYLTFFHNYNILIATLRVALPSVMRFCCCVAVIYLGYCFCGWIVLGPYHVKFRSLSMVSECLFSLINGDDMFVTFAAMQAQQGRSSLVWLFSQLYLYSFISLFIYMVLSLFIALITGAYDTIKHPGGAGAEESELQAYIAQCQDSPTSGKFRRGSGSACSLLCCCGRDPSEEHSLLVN
#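 TRPML1-DL cells, Tet-induced overnight (~16 h, 37 °C) at 1,500 cells/well, were loaded with Ca8 no-wash dye plus quencher for 45-90 min at room temperature. Compounds were pinned during FDSS kinetic reading; agonist 54-4 at EC80 (4 uM final) then added.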
# ClpP mod – qHTS Assay for Activators of ClpP | ATP-dependent Clp protease proteolytic subunit (Bacillus subtilis (strain 168)), P80244 | purified B. subtilis ClpP, FRET peptide cleavage, 20 min | Potency, µM (series often up to 57.5 µM), for inactives: at the highest dose activity change, negative = active | 1.9% of 340,000 active | AID 651965, 2013; active = well fitted falling curve with a large enough effect; inconclusive = small, poorly fitted or top-dose-only effect; inactive = no such curve, though single readings can be large or run the other way; further: potency means the concentration at half of the fitted maximal effect; the source files actives as falling curves though it sought activators and does not explain the sign; nearly all actives have a fitted effect of over 65% in size; many hits overshoot -100%
# Target sequence (P80244 whole entry, looked up): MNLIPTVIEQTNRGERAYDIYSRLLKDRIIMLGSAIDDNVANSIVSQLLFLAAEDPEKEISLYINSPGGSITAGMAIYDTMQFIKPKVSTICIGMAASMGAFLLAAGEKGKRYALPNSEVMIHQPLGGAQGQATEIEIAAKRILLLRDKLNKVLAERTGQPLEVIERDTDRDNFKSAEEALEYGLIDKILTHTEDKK
#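 Buffer: 100 mM Tris/HCl pH8, 100 mM KCl, 0.05% low protease BSA, 2.5% glycerol, 0.01% Tween-20. ClpP 10 microg/mL final; 20 min RT; delta FRET normalized to ADEP and DMSO controls.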
# Menin-MLL FL inh – displaces fluorescein MLL peptide from human menin; Fluorescence polarization, fluorescein-MLL peptide displacement from menin; FP activity change, % at 61.4 µM; 290,000 tested, under 10 active; AID 1766; inconclusive = falling polarisation curve, or a change in total fluorescence; inactive = total fluorescence flat and polarisation flat or rising; no compound was filed as active; the % refers to the polarisation; negative = inhibition;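 further: % of control where 0% means no effect; inhibitors lower the polarisation; unlabelled MLL peptide was the positive control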
# Sfp PPTase inh – inhibitors of Bacillus subtilis Sfp phosphopantetheinyl transferase; Q9F4F7; Biochemical Sfp PPTase activity, qHTS; Potency, µM, for the others: max response, negative = inhibition, hits mostly inhibitors; 3.5% of 310,000 active; AID 1490; active means well fitted inhibition curve with a large enough effect; inconclusive means small, poorly fitted or top-dose-only effect, or another doubt; inactive means no such curve, though single readings can be large or run the other way;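 further: the enzyme is Sfp with the accession as filed and its product quenches rhodamine fluorescence; potency means the concentration at half of the fitted maximal effect; 0% = enzyme reaction without inhibitor and -100% = no enzyme wells; top concentration of the series not given in the record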
#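 With Hepes-Na pH 7.6 buffer containing 10 mM MgCl2, Sfp (15 nM) modified BHQ-2-YbbR (12.5 uM) using rhodamine-CoA (5 uM). Two reads 30 minutes apart at 525/598 nm yielded each well's rate.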
# TRPV1 PAM – human TRPV1 potentiation; Q8NER1; TRPV1-expressing cells, Fluo-8 calcium influx, capsaicin EC20 potentiation; host cell line not named in the record; control for the full effect not named in the record; potentiation, % at 8.33 µM; 0.02% of 320,000 active; AID 540277; active means potentiation above 80%; inconclusive means 30% to 80%; inactive means below 30%; further: 0% is about no effect
#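 Cells expressing TRPV1 were dye-loaded with Fluo-8 and read kinetically: 10 s baseline, 3 min after compound (agonist portion), then 2 min after EC20 capsaicin (allosteric enhancer portion). Calcium-bound dye fluorescence at 480/520 nm.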
# gsp agonist – gsp mutant agonism; gsp mutant cells, cAMP HTRF, 30 min; control for the full effect not named in the record; Potency, µM (series often up to 76.9 µM), for the others: at the top dose activation (cAMP increase), most hits filed as activators; 0.13% of 340,000 active; AID 624287; active = well fitted activation curve with a large enough effect; inconclusive = small, poorly fitted or top-dose-only effect, or another doubt; inactive = no such curve, though single readings can be large or run the other way; cell line not stated here;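 further: phosphodiesterase inhibitor Ro 20-1724 added with compounds to block cAMP breakdown; potency means the concentration at half of the fitted maximal effect; nearly all actives have a fitted effect of over 60% in size; about a fifth of the inactives were tested at one dose only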
#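 Cells stably selected in G418 were plated at 2000/well, grown 16-24 hr, then given compounds in DMSO with the PDE inhibitor […] (300 uM solution added) for 30 min at 37C; cAMP was read by HTRF.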
# The depositor's hits bear a star; ? = inconclusive; . = no result given; [ ] = dose if it differs, or a comment. No enrichment for hits; about 4.9% have a hit in one of these screens.
SMILES,gsp antag,TRPML1 inh,ClpP mod,Menin-MLL FL inh,Sfp PPTase inh,TRPV1 PAM,gsp agonist
CS(=O)(=O)c1ccc(Cl)c(NC(=O)C2CCN(S(=O)(=O)c3cccs3)CC2)c1,-12%,-5,-1.2%,.,.,2,21%
COc1ccc(-c2noc(CNC(=O)c3ccc4c(c3)OCO4)n2)cc1OC,-7%,5,.,-2.3,7%,2,2%[15.4 µM]
O=C(c1ccc(Cl)cc1)N1CCC(=O)N(C(CO)Cc2ccccc2)CC1 (configuration not stated),2%,-12,-1.9%,.,.,.,.
COc1ccc(C(=O)NCCNc2nc3cc(C)c(C)cc3cc2C)cc1,4%,4,.,-2.2,9%,14,3%
CS(=O)(=O)N(CC(=O)NCc1cccnc1)Cc1ccc(Cl)cc1,2%,-16,1.5%,4.9,14%,?,24%
Cc1nn(C)c(-c2n[nH]c(=S)n2Cc2ccco2)c1Cl,2%,21,-2.0%,3.1,-16%,12,1%
Cc1ccccc1NC(=O)c1cc(S(=O)(=O)N2CCOCC2)ccc1F,-2%,-6,-3.9%,-1.7,10%,-4,7%
C/C(=N\NC(=O)C1CCCC1)c1ccc(C(C)C)cc1,3%,4,1.9%,.,14%,-15,-4%
CC[C@@]12C(=O)N(c3cccc(Br)c3)C(=O)N1[C@H](c1cccc(C)c1)[C@@H]1C(=O)N(Cc3ccccc3)C(=O)[C@@H]12,-4%,-18,-1.8%,.,.,-3,5%
CSc1nnc(C(C)(C)C)c(=O)n1/N=C/c1ccccc1O,-10%,.,-1.6%,0.4,6%,-22,2%
Cc1cccc(NC(=O)CCN2C(=O)C3C4CCC(C4)C3C2=O)c1C (configuration not stated),2%,-7,-1.1%,1.0,2%,22,-26%
CCN1C(=O)c2cccc3c(S(=O)(=O)N4CCC(C)CC4)ccc1c23,15%,-8,-10%,.,.,2,1%
COc1cc(CNCCCN2CCOCC2)ccc1OCC(=O)Nc1cccc(C(F)(F)F)c1,2%,10,-1.7%,2.4,6%,6,29%
COc1cccc(NC(=O)COC(=O)c2c(F)cccc2F)c1,15%,14,0.6%,3.5,18%,1,13%
COC(=O)C(Cc1ccccc1)NC(=O)CNS(=O)(=O)c1ccc(Br)cc1 (configuration not stated),.,-5,.,0.7,-4%,?,-3%[15.4 µM]
COc1ccc(CN(CCC(c2ccc(F)cc2)C2CCOC(C)(C)C2)C(=O)c2ccco2)cc1 (configuration not stated),22µM*,73,.,3.5,?,-10,2%[15.4 µM]
Cc1ccc(S(=O)(=O)NCCCC(=O)C=[N+]=[N-])cc1,-12%,6,0.4%,0.3,9%,15,-2%
COC(=O)c1cn(C(C)C(=O)NCc2ccco2)c2ccccc12 (configuration not stated),10%,-6,-1.7%,9.1,-4%,9,4%
COc1cccc(CN2CCNC(=O)C2CC(=O)NCCc2nc(C)c(C)s2)c1OC (configuration not stated),2%,4,-2.0%,-4.1,45µM*,1,3%
Cc1cc(C)nc(N2CCCC(C(=O)NCCc3ccccc3F)C2)n1 (configuration not stated),19%,0,-12%,4.0,10%,3,3%
CC(C)Nc1ccc(C(CC(N)=O)NC(=O)Cc2ccc(Cl)cc2)cc1[N+](=O)[O-] (configuration not stated),2%,17,1.7%,0.3,18%,3,.
Cc1cc(C(=O)CSc2cccc[n+]2[O-])c(C)n1-c1ccc(OC(F)F)cc1,-11%,26,-0.2%,8.0,-16%,13,27%
CN(C)c1cc[n+](CC(=O)Nc2cccc([N+](=O)[O-])c2)cc1,7%,-8,-1.3%,0.6,7%,0,-6%
O=C(CNC1CCCCC1)NCC1(c2ccccc2)CCCC1,-5%,6,.,4.4,2%,-24,3%
COc1ccc(NC(=O)c2cccnc2)c([N+](=O)[O-])c1,.,34,.,-1.7,6%,5,-12%[15.4 µM]
CCn1cc(CN2CCCC(CNS(=O)(=O)c3ccc(OC)cc3)C2)cn1 (configuration not stated),2%,7,?,2.3,8%,-11,25%[15.4 µM]
Cc1cc(=O)[nH]c(SCCCOc2ccc3c(c2)CCC3)n1,?,8,-1.9%,-1.1,3%,-25,-2%
CC1=C(C(=O)N2CCCC(N3CCN(c4ccccc4F)CC3)C2)OCCO1 (configuration not stated),15%,-3,-0.9%,.,14%,4,-60%[inhibitor]
O=S(=O)(NCc1ccccc1)c1ccc(Br)c2nsnc12,-17%,16,.,7.6,12%,9,-5%[15.4 µM]
COc1ccccc1CN1CCCC(N2CCN(c3ccc(F)cc3)CC2)C1 (configuration not stated),-1%,-12,-0.1%,-1.0,2%,-1,15%[15.4 µM]

# Profiles, quoted from the list.
# O=C(CNC1CCCCC1)NCC1(c2ccccc2)CCCC1 is entered as gsp antag: -5%; TRPML1 inh: 6; ClpP mod: .; Menin-MLL FL inh: 4.4; Sfp PPTase inh: 2%; TRPV1 PAM: -24; gsp agonist: 3%
# C/C(=N\NC(=O)C1CCCC1)c1ccc(C(C)C)cc1 is entered as gsp antag: 3%; TRPML1 inh: 4; ClpP mod: 1.9%; Menin-MLL FL inh: .; Sfp PPTase inh: 14%; TRPV1 PAM: -15; gsp agonist: -4%

# (cont.)
SMILES,gsp antag,TRPML1 inh,ClpP mod,Menin-MLL FL inh,Sfp PPTase inh,TRPV1 PAM,gsp agonist
Cn1c(Cc2cccc3ccccc23)nnc1SCC(=O)N1CCN(c2ccccc2)CC1,-18%,-3,-3.1%,-2.6,-8%,-12,1%
CCc1ccc(C2=NN(CCC(=O)NC3CC3)C(=O)CC2)cc1,.,.,.,0.1,15%,4,.
Cc1cc(C)c2nc(N3CCC(C(=O)N4CCN(c5ncccn5)CC4)CC3)sc2c1,-21%,-12,-0.1%,4.7,-5%,7,-51%[inhibitor]
CN(C)c1ccc(-c2nn3c(-c4cccnc4)nnc3s2)cc1,5%,13,-13%,0.3,7%,24,29%
Cc1cccc(CNc2ccc(C(CC(N)=O)NC(=O)Cc3cccc4ccccc34)cc2[N+](=O)[O-])c1 (configuration not stated),-5%,0,1.0%,1.3,-13%,-13,.
Cc1noc(C)c1COc1ccc(C(=O)OCC(=O)NCc2ccccc2Cl)cc1,-7%,-16,-3.2%,6.5,15%,-17,?
O=c1oc2cc(Oc3ccc(C(F)(F)F)cc3[N+](=O)[O-])ccc2c2c1CCC2,8%,-10,?,4.9,-3%,0,-27%
Cc1ccc(OCCOCCn2ccnc2)c(Br)c1,-1%,-1,-0.3%,6.0,79µM*,6,27%
O=C(COc1ccc(Cl)cc1Cl)NCCN1CCCCC1,.,10,2.3%,.,.,.,?
COCCN(C(=O)CN1CCc2ccccc21)c1c(N)n(Cc2ccccc2)c(=O)[nH]c1=O,-1%,-1,-6.7%,.,.,6,-34%[inhibitor]
CCOC(=O)c1nnc2c(Br)c(-c3ccccc3)nn2c1C,-11%,8,0.9%,2.6,-9%,-9,1%
COc1ccc(NC(=O)c2ccc(S(=O)(=O)N3CCOCC3)cc2)c(OC)c1,7%,-16,-0.3%,3.7,13%,-16,6%
CC(C)Cn1c(=O)c2c(nc3n2CCCN3Cc2ccccc2)n(C)c1=O,-19%,-3,0.4%,0.1,2%,-18,-5%[15.4 µM]
Cc1cc(C)c2nc(C(F)(F)F)nc(NCCCN3CCOCC3)c2c1,3%,0,-7.0%,6.2,0%,-12,-38%[inhibitor]
COC(=O)[C@@H](NCc1cccc(CN([C@H](C(=O)OC)C(C)C)S(C)(=O)=O)c1)C(C)C,2%,-2,-1.2%,-0.7,22%,-25,.
COc1ccc(-n2c(C)c([N+](=O)[O-])c3ccc(O)c(CN4CCCCC4)c32)cc1,-17%,34,-2.3%,-0.1,-19%,-8,-18%
COc1cc(C(=O)OCC2CC(c3ccccc3)=NO2)cc(OC)c1OC (configuration not stated),-2%,29,.,3.0,15%,-3,-15%
CC(=O)c1ccc(N(C(=O)c2csnn2)C(C(=O)NC(C)(C)C)c2cccs2)cc1 (configuration not stated),3%,-3,3.3%,-0.6,5%,-6,-22%
c1ccc(OCc2nn3c(-c4n[nH]c5c4CCC5)nnc3s2)cc1,10%,-11,-2.1%,1.7,-19%,?,-32%[inhibitor]
CCOc1ccc(OCC)c(NC(=O)c2ccc(CNc3c(N4CCCC4)c(=O)c3=O)cc2)c1,4%,2,.,-1.0,-8%,7,2%
O=C(O)c1cc(N2CCOCC2)nc2ccccc12,8%,.,3.9%,0.8,-21%,7,-36%[inhibitor]
CCN(CC)C(=O)CN(c1ccc(Cl)cc1)S(=O)(=O)c1ccccc1,-2%,-16,0.8%,-2.3,12%,-15,-22%
O=C(CN1CCCC1)OCCCc1ccccc1,14%,3,.,8.0,3%,3,-4%[15.4 µM]
O=C1CCN(Cc2ccccc2)C=C1c1ccc(C(F)(F)F)cc1,-5%,29,0.2%,.,.,.,.
COc1ccc(N2CCN(C(=O)CCCCCn3c(=O)[nH]c4ccsc4c3=O)CC2)cc1,-15%,3,.,2.2,10%,-3,25%[15.4 µM]
Clc1ccccc1-c1nc(N/N=C/c2cccnc2)c2ccccc2n1,-10%,8,-5.2%,0.4,15%,-26,-7%
Cc1ccc(C(=O)C2=C(O)C(=O)N(CC3CCCO3)C2c2ccccc2F)o1 (configuration not stated),2%,3,.,-0.6,1%,-1,49%[15.4 µM]
O=C1[C@H]2[C@@H](c3ccc(F)cc3)N3C(=O)N(c4ccc(Br)cc4)C(=O)[C@@]3(Cc3ccc(Cl)cc3)[C@H]2C(=O)N1C1CCCCC1,-2%,12,-5.1%,6.4,24%,-10,?
CN(C)Cc1c(-c2ccc(Cl)cc2)nc2ccccn12,2%,13,.,-1.8,11%,-1,?
Cc1ccc(CCN2CCN=C2Nc2ccccc2)cc1,8%,8,-1.6%,.,.,4,.
c1ccc(Cn2nnnc2C(c2cccnc2)N2CCN(c3ccccc3)CC2)cc1 (configuration not stated),-16%,-1,0.1%,-1.4,-13%,-5,-35%[inhibitor]
Cc1cc(N/C=C\c2nnnn2-c2ccc(F)cc2)no1,-8%,4,2.7%,?,2%,-6,15%
CSc1c(SCc2ccccc2)cnn(Cc2ccccc2)c1=O,?,49,16%,2.6,45µM*,-2,0%[15.4 µM]
CCOc1[nH]n(-c2ccccc2)c(=O)c1C=Nc1ccccc1,-20%,2,1.5%,-2.1,15%,28,-52%[inhibitor]
